Source: PubChem BioAssay
TRPML1 agonist – human mucolipin-1 channel agonism | TRPML1-expressing cells, Ca2+ dye fluorescence, FDSS; host cell line not named in the record; reference of the full effect not given here | activation, % (no concentration beside the values) | actives 0.12% (n = 410,000); in the data active = activation above about 50%; inconclusive = about 30% to 50%; inactive = below about 30%; further: 0% is about no effect; the text of the record puts the active cut at 80%
Target sequence (Q9GZU1 whole entry, looked up): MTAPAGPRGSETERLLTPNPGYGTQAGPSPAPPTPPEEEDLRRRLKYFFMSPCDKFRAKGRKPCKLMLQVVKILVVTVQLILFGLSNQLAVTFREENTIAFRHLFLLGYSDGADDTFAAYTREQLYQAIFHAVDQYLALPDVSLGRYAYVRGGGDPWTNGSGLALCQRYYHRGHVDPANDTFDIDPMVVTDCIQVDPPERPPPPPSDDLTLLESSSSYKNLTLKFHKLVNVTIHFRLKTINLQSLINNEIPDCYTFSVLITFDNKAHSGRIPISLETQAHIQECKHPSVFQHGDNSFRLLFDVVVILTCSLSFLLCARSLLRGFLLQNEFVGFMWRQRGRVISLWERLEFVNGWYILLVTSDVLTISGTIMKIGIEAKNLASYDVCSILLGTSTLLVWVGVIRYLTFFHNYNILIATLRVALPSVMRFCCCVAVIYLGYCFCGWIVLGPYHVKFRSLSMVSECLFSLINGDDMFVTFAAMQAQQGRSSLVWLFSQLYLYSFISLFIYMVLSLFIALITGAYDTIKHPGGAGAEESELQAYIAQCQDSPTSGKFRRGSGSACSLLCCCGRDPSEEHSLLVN
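Tetracycline-induced TRPML1-DL cells are seeded and incubated overnight before loading with a no-wash Ca2+ dye and quencher. Agonist activity is taken from the 110 s fluorescence read following compound pin-transfer on an FDSS, before EC80 54-4 challenge.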
TRPV1 PAM – enhances activation of the human vanilloid receptor TRPV1; Q8NER1; TRPV1-expressing cells, Fluo-8 calcium influx, capsaicin EC20 potentiation; host cell line not named in the record; control for the full effect not named in the record; potentiation, % at 8.33 µM; actives 0.02% (n = 320,000); active means potentiation above 80%; inconclusive means 30% to 80%; inactive means below 30%; further: 0% is about no effect
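Fluo-8 calcium influx in TRPV1-expressing cells, kinetic read (ex 480/em 520 nm). Compound added and read 3 min for agonist activity, followed by capsaicin at EC20 final and 2 min further read for enhancement.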
Menin MLL FP FL – displaces fluorescein MLL peptide from human menin | Fluorescence polarization, fluorescein-MLL peptide displacement from menin | AID 1766 | 290,000 tested, under 10 active | FP activity change, % at 61.4 µM; inconclusive = falling polarisation curve, or a change in total fluorescence; inactive = total fluorescence flat and polarisation flat or rising; no compound was filed as active; the % refers to the polarisation; negative = inhibition;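 further: % of control where 0% means no effect; inhibitors lower the polarisation; unlabelled MLL peptide was the positive control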
Sfp inh – inhibitors of Bacillus subtilis Sfp phosphopantetheinyl transferase; Q9F4F7; Biochemical Sfp PPTase activity, qHTS; Potency, µM, without a hit: max response, negative = inhibition, most hits filed as inhibitors; actives 3.5% (n = 310,000); AID 1490; active means well fitted inhibition curve with a large enough effect; inconclusive means small, poorly fitted or top-dose-only effect, or another doubt; inactive means no such curve, though single readings can be large or run the other way;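 further: the enzyme is Sfp with the accession as filed and its product quenches rhodamine fluorescence; potency means the concentration at half of the fitted maximal effect; 0% = enzyme reaction without inhibitor and -100% = no enzyme wells; top concentration of the series not given in the record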
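Reaction rates are the 30-min fluorescence difference (ex 525, em 598 nm) in wells containing 15 nM Sfp, 5 uM rhodamine-CoA and 12.5 uM BHQ-2-YbbR at pH 7.6 with 10 mM MgCl2.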
ClpP mod – qHTS Assay for Activators of ClpP. ATP-dependent Clp protease proteolytic subunit (Bacillus subtilis (strain 168)), P80244. purified B. subtilis ClpP, FRET peptide cleavage, 20 min. Potency, µM (highest dose often 57.5 µM), for inactives: at the highest dose activity change, negative = active. actives 1.9% (n = 340,000). AID 651965, 2013; active = well fitted falling curve with a large enough effect; inconclusive = small, poorly fitted or top-dose-only effect; inactive = no such curve, though single readings can be large or run the other way; further: potency means the concentration at half of the fitted maximal effect; the source files actives as falling curves though it sought activators and does not explain the sign; nearly all actives have a fitted effect of over 65% in size; many hits overshoot -100%
Target sequence (P80244 whole entry, looked up): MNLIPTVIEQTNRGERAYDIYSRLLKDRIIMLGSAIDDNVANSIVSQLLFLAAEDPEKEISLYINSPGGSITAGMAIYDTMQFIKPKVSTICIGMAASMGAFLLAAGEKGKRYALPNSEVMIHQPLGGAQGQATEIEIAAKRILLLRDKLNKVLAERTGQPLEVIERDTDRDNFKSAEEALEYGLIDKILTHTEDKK
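ClpP 10 microg/mL final, pH 8 Tris/KCl buffer with BSA, glycerol, Tween-20; compound pinned in; FRET-FV substrate; RT 20 min; Ex320/Em430; ΔFRET vs ADEP 5.8 microM, DMSO, no enzyme.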
PINK1 expr mod – changes PINK1 expression; PINK1 immunofluorescence, high-content cytometry, 24 h; Potency, µM (titrated, usually from 76.6 µM), for inactives: top-dose activation (PINK1 increase), hits mostly activators; actives 0.2% (n = 410,000); active = well fitted activation curve with a large enough effect; inconclusive = small, poorly fitted or top-dose-only effect; inactive = flat fitted curve, though single readings scatter; cell line not stated here;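 further: potency means the concentration at half of the fitted maximal effect; % of control where 0% means no effect; nearly all actives have a fitted effect of over 65% in size; a mitochondrial uncoupler was the plate control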
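Measures PINK1 amount and localization on or inside mitochondria by immunofluorescence. Stable cells get compounds at 5 concentrations for 24 hours before fixation and staining; CCCP controls included.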
TRPML1 inh – inhibitors of human TRPML1 channel; activity change, negative = inhibition, % (concentration not given with the values); actives 0.02% (n = 390,000); AID 624415; TRPML1-inducible cells, Ca2+ dye fluorescence, FDSS; hits give low values; inhibition of EC80 agonist-evoked calcium signal; Q9GZU1; in the data active means activity change below about -50%; inconclusive means about -30% to -50%; inactive means above about -30%;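 further: stimulus is agonist 54-4 at its EC80 concentration; on the % scale 0 is the no-effect control and ±100 the full control effect; compound concentration not given in the record; the text of the record puts the active cut at -80%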
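TRPML1-DL cells, Tet-induced overnight (~16 h, 37 °C) at 1,500 cells/well, were loaded with Ca8 no-wash dye plus quencher for 45-90 min at room temperature. Compounds were pinned during FDSS kinetic reading; agonist 54-4 at EC80 (4 uM final) then added.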
Numbers without * were called inactive; ? = inconclusive; . = no result given; & = joins results of further samples; [ ] = another dose, or the depositor's remark.

SMILES | Sfp inh | TRPV1 PAM | ClpP mod | TRPML1 agonist | Menin MLL FP FL | TRPML1 inh | PINK1 expr mod
COC(=O)CSC1=NP(=S)(SCC(=O)OC)N2CCCC2=C1C#N (stereo not drawn) | -9% | -29 | 2.7% | -0.6 | 1.8 | 31 | 1.6%
CN1CCCC(C(=O)c2ccc(-c3ccccc3)cc2)C1 (stereo not drawn) | 3% | -23 | -4.5% | -0.8 | -5.4 | 3 | 1.4%
COC(=O)C1(C(=O)O)Cc2cc([N+](=O)[O-])ccc2N2CCCC21 (stereo not drawn) | 6% | -1 | -2.2% | 1.3 | 18 | 12 | -0.9%
Cn1c(=O)cc(OCC(=O)N2CCN(C3CCCCC3)CC2)c2ccccc21 | 17% | 23 | -7.1% | 0.2 | 3.1 | -3 | 1.7%
CCN1CCN(C(=O)COc2ccc3oc4c(c3c2)CCCC4)CC1 | . | . | -1.3% | -1.5 | . | 9 | -0.4%
C[C@@H]1CC2C3CC=C4C[C@@H](O)CC[C@]4(C)C3CC[C@]2(C)[C@H]1O (stereo partly drawn) | . | . | . | -1.2 | . | -9 | 2.3%
COC(=O)C1=C(c2cc3ccccc3o2)C[C@@H]2CC[C@H]1N2C(=O)N1CCCC1 | . | . | -0.9% | -0.2 | . | 2 | 0.3%
COC(=O)C1=C(c2cc3ccccc3s2)C[C@@H]2CC[C@H]1N2C(=O)NCCS(C)=O (stereo partly drawn) | . | . | 0.7% | -0.6 | . | 7 | -1.3%
CCC1=Nc2cc(C(=O)N3CCC4(CC3)OCCO4)ccc2Sc2ccc(C)cc21 | -5% | -19 | -2.1% | -0.7 | 0.4 | -6 | -0.2%
COc1ccc(/C=C2/C(=O)NC(=O)N(Cc3ccco3)C2=O)cc1 | ? | -4 | . | . | ? | . | .
O=C(NCc1cccnc1)NC1CCCCC1 | -2% | 2 | -1.1% | 0.5 | -2.0 | -3 | .
CC1(C)C(=O)CC[C@@]2(C)C1=CCC1C2CC[C@]2(C)C(=O)CCC12 (stereo partly drawn) | . | . | . | -0.2 | . | 16 | 2.6%
CNC(=O)Oc1ccc2c(c1)C(=O)c1ccccc1CO2 | -2% | 3 | -0.6% | 0.9 | -1.5 | 12 | 1.5%
COC(=O)C1=C(c2ccc(F)cc2F)C[C@@H]2CC[C@H]1N2C(=O)NC1Cc2ccccc2C1 | . | -20 | -1.6% | -0.1 | . | -1 | -0.1%
Cc1cc(N(CCCl)CCCl)ccc1/C=N/N=C(\N)c1cnccn1 | . | . | . | 0.9 | . | 7 | -2.2%
COc1cccc(-c2sc3ccccc3c2-c2ccc(OCCN3CCOCC3)cc2)c1 | . | . | 32µM* | 0.5 | . | 12 | 2.2%
CCCc1nnc(NC(=O)CCC(=O)N2CCC3(CC2)OCCO3)s1 | 11% | 6 | 0.4% | -0.3 | 0.0 | 5 | 1.7%
O=C(N/N=C/c1c(O)n(Cc2ccco2)c(=O)[nH]c1=O)c1ccccc1 | ? | -19 | -7.0% | 0.9 | ? | -21 | 0.4%
N#CCCn1cc(C(=O)Nc2ccc([N+](=O)[O-])cc2)c(-c2ccc3c(c2)OCCO3)n1 | 4% | 0 | -9.1% | -0.3 | -2.0 | -5 | 6.4%
CN1C(=O)NC(=O)/C(=C/c2ccc([N+](=O)[O-])o2)C1=O | 18µM* | 6 | -28% | 0.1 | ? | -3 | 0.6%
COc1ccc(CCNCc2ccc(Br)cc2)cc1OC | -21% | -35 | -0.2% | 0.9 | -3.5 | -12 | -3.6%
COc1ccc(C(O)P(=O)(Oc2ccccc2)Oc2ccccc2)cc1 (stereo not drawn) | -3% | -7 | . | 0.6 | . | 7 | 0.6%
Cc1[nH]c(=O)[nH]c(=O)c1/C=C/C(=O)OCC(C)C | 13% | 5 | ? | 0.8 | 3.0 | 12 | -0.7%
NCCCCCC(=O)OC1N=C(c2ccccc2Cl)c2cc(Br)ccc2NC1=O (stereo not drawn) | -8% | -10 | -3.7% | 0.9 | -0.2 | -12 | -1.5%
CCCCC1C(=O)NC(=S)NC1=O | 10µM* | 8 | . | . | 1.9 | . | .
Cc1cccc(OCCn2cccc2/C=C2/C(=O)NC(=O)N(Cc3ccco3)C2=O)c1 | 56µM* | 4 | . | 0.4 | ? | 10 | 2.7%
CNC(C(=O)c1ccccc1)C(OC(C)C)c1ccc(Cl)cc1 (stereo not drawn) | 7% | -3 | -3.0% | -0.3 | 4.0 | -8 | -3.4%[38.3 µM]
COc1ccc(CNCCc2c[nH]c3ccccc23)c(OC)c1OC | 9% | -3 | . | 0.4 | 0.7 | -4 | 0.7%
CC12CN3CN(C1)CC(c1ccccc1)(C3)C2=O | 15% | -2 | 0.8% | 0.4 | -0.7 | 4 | 1.6%
C[C@]12CC[C@@H](O)C[C@@H]1CC[C@@H]1[C@@H]2CC[C@]2(C)C(=O)[C@H](O)C[C@@H]12 | . | . | 0.9% | 0.6 | . | 2 | 0.6%
CN(C)C(=O)Oc1cccc(NC(=O)c2ccccc2C(F)(F)F)c1 | 17% | -10 | . | 0.2 | 7.9 | 10 | -1.7%
C[C@]12CC[C@H](O)CC1C(=O)CC1C2CC[C@@]2(C)C1CC[C@@H]2O (stereo partly drawn) | . | . | 0.5% | 0.3 | . | 21 | -5.1%
CCC(=O)Nc1ccc(N2CCN(CC)CC2)c(Cl)c1 | 14% | -12 | -9.5% | 0.1 | 0.6 | -8 | -3.0%
COP(=O)(CC(=O)O)c1ccccc1 (stereo not drawn) | -13% | 16 | -0.7% | -0.4 | -0.2 | 4 | 1.3%[38.3 µM]
O=c1[nH]c2ccccc2o1 | -4% | -9 | -3.5% | . | 3.2 | . | -0.1%
C[C@@H]1C(=O)O[C@@H]2[C@H](O)C34[C@@H]5OC(=O)C3(O[C@H]3OC(=O)[C@H](O)C34[C@H](C(C)(C)C)[C@H]5O)[C@@]12O (stereo partly drawn) | 3% | -5 | -2.7% | 0.4 | -1.5 | 2 | -0.2%
CCc1ccc(-n2c(O)c(C=NCCN(CC)CC)c(=O)[nH]c2=O)cc1 | -18% | -10 | ? | -0.4 | ? | -14 | -1.0%
Cc1ncc(CN2CCCC(C(=O)c3ccc(C(C)(C)C)cc3)C2)s1 (stereo not drawn) | -3% | -25 | 0.3% | 1.3 | -0.1 | 18 | 8.4%
Brc1cccc(CNCCc2ccc3c(c2)OCO3)c1 | ? | -5 | 1.1% | 1.0 | -0.3 | -4 | 8.4%
CCN1C(=O)C(=C/C=C/c2ccco2)C(=O)N(CC)C1=S | 40µM* | -3 | . | 6.0 | ? | 1 | 2.8%
Cc1cc(NC(=O)CSc2nnc(C3CC3)n2N)no1 | 6% | -5 | 0.7% | -0.2 | 2.0 | 0 | ?
Clc1ccc(C(c2ccc(Cl)cc2)n2cc[n+](CC(OCc3ccc(Cl)cc3Cl)c3ccc(Cl)cc3Cl)c2)cc1 (stereo not drawn) | ? | 10 | 0.3%&1.0% | -0.4&-0.7 | -17&-3.9 | 1 | -0.6%&-0.2%
CN(C)C(=O)Oc1noc2cc(Cl)ccc12 | 13% | -10 | 0.2% | 1.0 | 0.7 | 8 | 2.5%
CCN(CC)c1ccc(NC(=O)c2cccc(C)c2)cc1S(=O)(=O)Nc1ccccc1OC | 13µM* | 5 | -9.7% | 1.7 | -2.9 | 36 | -1.1%
Cc1cc(C)cc(OCCOc2cccc(C=C3C(=O)NC(=O)NC3=O)c2)c1 | 50µM* | -8 | 1.1% | 0.9 | 0.5 | 6 | 1.0%
C=C1C(=O)O[C@@H]2C[C@@H](C)[C@@H]3C=CC(=O)[C@@]3(C)[C@@H](O)[C@H]12 | 79µM* | ? | 2.7% | -0.2 | 0.3 | 6 | -0.8%
CC1([N+](=O)[O-])COP(=O)(NC2CCCC2)OC1 (stereo not drawn) | . | . | 0.8% | -0.3 | . | -3 | 0.0%
CCOC(=O)C1=C(C)OC(N)=C(C(=O)OCC)C12C(=O)Nc1ccc(Br)cc12 (stereo not drawn) | -3% | 5 | -2.2% | 0.3 | 5.0 | 34 | -2.1%
O=C1NC(=O)N(Cc2ccccc2)C(=O)/C1=C/c1cnn(-c2ccccc2)c1 | -20% | 27 | . | . | 11 | . | .
COc1ccc(C(c2nnnn2Cc2ccccc2)N2CCC(n3c(=O)[nH]c4ccccc43)CC2)cc1 (stereo not drawn) | . | . | 1.0% | 3.4 | . | -15 | -0.9%

Going on with the list:
SMILES | Sfp inh | TRPV1 PAM | ClpP mod | TRPML1 agonist | Menin MLL FP FL | TRPML1 inh | PINK1 expr mod
Cc1ccccc1N1C(=O)CC(=O)NC1=O | 56µM* | 18 | 2.6% | -0.9 | 0.2 | -12 | -1.6%[38.3 µM]
CCCNC(=O)c1c(N)n(Cc2ccc3c(c2)OCO3)c2nc3ccccc3nc12 | 2% | -41 | -28% | 0.2 | 9.5 | 1 | 3.2%
CCOCCCn1c(N)c(C(=O)Nc2sc3c(c2C(=O)OC)CCCC3)c2nc3ccccc3nc21 | ? | ? | 4.9% | 0.8 | ? | -14 | 5.8%[38.3 µM]
Cc1ccc(CN2CCN(Cc3ccccc3F)CC2)cc1 | -27% | 7 | -3.2% | 1.2 | -0.3 | 3 | 2.2%
Cc1cc(N2CCCCC2)ccc1C=C1C(=O)N(C)C(=S)N(C)C1=O | -92% | -3 | 0.8% | -0.6 | 33[activator] | 40 | 3.2%
Cc1cc(OC(=O)N(C)C)nc(SCc2c(Cl)cccc2Cl)n1 | -13% | 2 | 2.3% | 1.4 | -1.9 | -1 | 2.1%
Cc1nonc1OCCNc1ccc([N+](=O)[O-])c2cccnc12 | -10% | -18 | -3.9% | 0.7 | 0.3 | -8 | 1.4%
Cc1ccc(C(C)C)c(OCC(=O)N2CCN(CC(=O)N3CCOCC3)CC2)c1 | . | -7 | -0.5% | -0.7 | . | 10 | 4.9%
C/C(=N\N1CCN(C)CC1)c1c(O)[nH]c(=O)[nH]c1=O | -4% | 15 | 0.8% | 0.9 | -0.2 | 17 | 0.5%
COc1ccc(C2C=C(C)Oc3c2c(=O)oc2ccccc32)cc1OC (stereo not drawn) | . | . | -6.3% | 0.2 | . | -15 | 2.6%

This is a subset; rates above refer to the full screens.
